# Cruzain inh Det = cruzain (T. cruzi) inhibition with detergent; 200,000 tested, 0.43% active; Potency, µM, inactives show max response, negative = inhibition, hits mostly inhibitors; purified cruzain, Z-FR-AMC fluorescence, 0.01% Triton; P25779;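 further: plate controls were neutral wells for no effect and buffer without enzyme for full effect; nearly all actives have a fitted effect of over 40% in size; top concentration of the series not given in the record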
# Target sequence (P25779 123-467 limits assumed): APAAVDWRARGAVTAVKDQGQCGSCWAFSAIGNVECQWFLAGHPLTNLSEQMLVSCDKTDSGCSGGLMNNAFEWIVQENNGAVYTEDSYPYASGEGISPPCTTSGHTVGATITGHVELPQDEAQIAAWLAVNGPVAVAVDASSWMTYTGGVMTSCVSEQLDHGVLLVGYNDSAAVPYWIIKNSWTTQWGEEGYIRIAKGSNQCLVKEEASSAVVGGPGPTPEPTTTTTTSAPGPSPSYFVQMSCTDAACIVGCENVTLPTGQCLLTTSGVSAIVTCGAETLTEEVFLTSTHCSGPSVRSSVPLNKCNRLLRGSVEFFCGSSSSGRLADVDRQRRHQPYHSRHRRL
#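 Z-FR-AMC hydrolysis (2 uM substrate) by cruzain (1.5 nM) monitored kinetically at ex 360/em 450 nm after 15 min room-temperature compound exposure; 0.01% Triton X-100, pH 5.5, 5 mM DTT.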
# Cruzain noTriton = inhibitors of Trypanosoma cruzi cruzain without detergent; AID 1476; P25779; purified cruzain, Z-FR-AMC fluorescence, no detergent; Potency, µM, without a hit: max response, negative = inhibition, most hits filed as inhibitors; 200,000 tested, 2.3% active;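 further: plate controls were enzyme without inhibitor for no effect and buffer without enzyme for full effect; nearly all actives have a fitted effect of over 40% in size; top concentration of the series not given in the record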
#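 Detergent-free condition (0.00005% Triton X-100) in acetate buffer pH 5.5 with DTT. 1.5 nM enzyme and compound were pre-mixed 15 min, then 2 uM Z-FR-AMC substrate added; reaction progress from fluorescence change between first and third reads (60 s).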
# Lassa entry inh = inhibitors of Lassa virus binding or cell entry; Lassa virus pseudotype entry inhibition, cell reporter; control for the full effect not named in the record; Potency, µM (doses to about 37.9 µM), for inactives: at the highest dose activity change, negative = inhibition, hits mostly inhibitors; 300,000 tested, 1.2% active; AID 540256; active means well fitted inhibition curve with a large enough effect; inconclusive means small, poorly fitted or top-dose-only effect, or effect the other way; inactive means flat fitted curve, though single readings scatter; tested in HEK293 cells; further: on the % scale 0 is the no-effect control and ±100 the full control effect; nearly all actives have a fitted effect of over 50% in size; luciferase read-out
# StopGo reporter = lowers the luciferase signal of an FMDV 2A StopGo reporter; Potency, µM (titrated, usually from 57.9 µM), for inactives: top-dose signal change, negative = less light; 410,000 tested, 1.2% active; human cells with a luciferase reporter of 2A StopGo recoding; control for the full effect not named in the record; AID 1159524; active = well fitted falling curve with a large enough effect; inconclusive = small, poorly fitted or top-dose-only effect; inactive = no such curve, though single readings can be large or run the other way; tested in HEK293T cells; further: on the % scale 0 is the no-effect control and ±100 the full control effect; nearly all actives have a fitted effect of over 45% in size; luciferase light after 4 h
# RE007 growth inh = less growth of the S. pombe RE007 Vpr strain. Potency, µM (top dose mostly 92.2 µM), without a hit: at the top dose activity change, negative = less growth. 360,000 tested, 0.21% active. S. pombe RE007 Vpr strain, BacTiter-Glo ATP luminescence, 24 h; control for the full effect not named in the record; active = well fitted falling curve with a large enough effect; inconclusive = small, poorly fitted or top-dose-only effect; inactive = no such curve, though single readings can be large or run the other way;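 further: on the % scale 0 is the no-effect control and ±100 the full control effect; nearly all actives have a fitted effect of over 50% in size; the assay follows cell death caused by Vpr and the record does not say whether a fall means rescue or toxicity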
#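 Fission yeast RE007 carrying one integrated HIV-1 vpr copy, seeded at OD 0.01 in PMG+AL medium with 23 nL pinned compound. Grown 24 h at 30 degrees; viability read by BacTiter-Glo luminescence after 5 min.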
# MARV entry inh = inhibitors of Marburg virus binding or cell entry; Potency, µM (top dose mostly 37.8 µM), inactives show top-dose activity change, negative = inhibition, most hits filed as inhibitors; 300,000 tested, 1.8% active; Marburg virus pseudotyped entry inhibition, cell reporter; control for the full effect not named in the record; about a third of the inactives were read at about 46 µM; AID 540276; active = well fitted inhibition curve with a large enough effect; inconclusive = small, poorly fitted or top-dose-only effect, or effect the other way; inactive = flat fitted curve, though single readings scatter; tested in HEK293 cells; about a fifth of its hits are not listed in these tables; further: on the % scale 0 is the no-effect control and ±100 the full control effect; luciferase read-out
# NS1 inh = influenza NS1 inhibition; S. cerevisiae slowed by influenza A NS1, growth recovery by OD600; Potency, µM (top dose mostly 46.1 µM), for inactives: at the highest dose activity, positive = more growth; 270,000 tested, 0.4% active; active means well fitted rising curve with a large enough effect; inconclusive means small, poorly fitted or top-dose-only effect; inactive means no such curve, though single readings can be large or run the other way; further: nearly all actives have a fitted effect of over 50% in size
#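 A cell-based growth assay was used: compounds that relieve NS1-induced slow growth of budding yeast raise OD600. Assay medium was yeast nitrogen base with ammonium sulphate and -URA supplement, pH 6.0, with 2% galactose.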
# SARS PLpro yeast = blocks SARS-CoV papain-like protease in a yeast assay; Potency, µM (top dose mostly 32.9 µM), without a hit: at the highest dose activity, positive = growth rescue; 330,000 tested, 0.19% active; S. cerevisiae expressing SARS-CoV PLpro, growth rescue; control for the full effect not named in the record; active means well fitted rising curve with a large enough effect; inconclusive means small, poorly fitted or top-dose-only effect; inactive means no such curve, though single readings can be large or run the other way; further: 0% is about no effect; nearly all actives have a fitted effect of over 55% in size; growth read by luminescence after 48 h
# An asterisk follows results filed as active; u = inconclusive; x = not tested or not shown; & = joins results of further samples; [ ] = dose if it differs, or a comment. Unless noted, the call rests on the fitted dose curve; in most records, active means well fitted curve in the direction sought with a large enough effect; inconclusive means small, poorly fitted or top-dose-only effect, or another doubt; inactive means no such curve, though single readings can be large; an effect the other way counts as inactive or inconclusive. Potency means the concentration at half of the fitted maximal effect. Hits appear at their usual frequency; 4.6% or so of the library scored in one or more.
mol,Cruzain inh Det,Cruzain noTriton,Lassa entry inh,StopGo reporter,RE007 growth inh,MARV entry inh,NS1 inh,SARS PLpro yeast
Cc1c(NC(=S)NC(=O)c2ccco2)c(=O)n(-c2ccccc2)n1C,-1.2%,0%,0%,-8%,3%,10%,9%,-11%
CCN(CC(=O)NC1CCS(=O)(=O)C1)S(=O)(=O)c1ccc(C)cc1C (stereo not given),3.3%,-4%,-2%,16%,5%,0%,9%,-1%
COc1ccc(NC(=O)CCCC(=O)NCCc2ccc(OC)c(OC)c2)cc1,x,x,x,-16%,1%,x,4%,15%
O=C(Nc1ccc(F)cc1F)c1ccc2c(O)c(S(=O)(=O)c3ccc(Cl)cc3)c(=O)[nH]c2c1,-1.7%,6%,-3%[46.1 µM],-9%,x,x,x,x
COc1ccc(Cn2c(-c3ccc(Cl)cc3)c[n+]3ccccc23)cc1,-5.6%,-1%,u,17%,-15%,u,-13%,-17%
COC(=O)c1ccc(NC(=O)c2ccc(C)cc2)o1,0.5%,-4%,20%,2%,-22%,9%,-49%,-9%
O=c1oc2c(CN3CCCCC3)c(O)ccc2cc1-c1nc2ccccc2[nH]1,-22%,1%,2%,15%,-5%,5%&-1%,-3%,1%
Cc1ccc2nc(-c3ccccc3)cn2c1,1.7%,-5%,0.32µM*,1.8µM*,45µM*,0.45µM*,-45%,-23%
CCOc1ccc(NCc2nnc(SCC(=O)Nc3cc(C)on3)n2-c2ccc(OC)cc2)cc1,-2.0%,16%,u,7%,-2%,-2%,-15%,5%
CCC(C)c1ccc(OCC(=O)Nc2cccc(-c3nc4ncccc4o3)c2)cc1 (stereo not given),-6.8%,26%,-24%[46.1 µM],u,x,u,x,x
Cc1ccc(NC(=S)NNC(=O)CSc2nc3ccccc3c(=O)n2-c2ccc(C)cc2)cc1,-5.2%,-7%,-3%,0%,24%,-41%,u,16%
Cc1c2cnn(CC(=O)N3CCN(c4ccc(F)cc4)CC3)c(=O)c2c(C)n1Cc1ccccc1F,-3.1%,5%,-6%[46.1 µM],u,x,1%[46.1 µM],x,x
CCC(CC)C(=O)Nc1cc(C(=O)NCCc2ccccc2)ccc1Cl,-3.0%,-8%,-25%,x,7%,4%,4%,1%
COc1ccccc1CNC(=O)COC(=O)c1c[nH]c2ccccc12,x,x,u,-5%,1%,u,x,2%
CN1CCC(=NNC(=O)C(=O)Nc2ccc(F)cc2)CC1,x,x,-2%,43%[activator],-2%,18%[46.1 µM],-8%,-4%
CCOc1ccccc1NC(=O)CSC1=NN2CCCC(=O)N=C2S1,x,x,-42%[46.1 µM],-13%,-9%,u,11%,0%
CCC(=O)N/N=C(\C)CC(=O)Nc1ccccc1-c1ccccc1,0.0%,5%,-5%,-11%,-19%,15%,14%,4%
O=C(Nc1cccnc1)Nc1ccccc1Cl,-2.0%,-2%,u,0%,-12%,u,-13%,-10%
COc1ccc(/C=N\NC(=O)c2ccccc2)cc1COc1ccccc1,x,x,u,-8%,-9%,-30%,-5%,3%
O=[N+]([O-])c1cc([N+](=O)[O-])c2nonc2c1Nc1ccc(O)cc1,x,x,x,-27%,8%,x,26%,11%
COc1ccc(S(=O)(=O)NCC(c2ccc(C)cc2)N2CCN(C)CC2)cc1 (stereo not given),x,x,0%,-13%,-15%,u,x,1%
Cn1c(-c2ccccc2)c[n+]2c1-c1ccccc1C2,-2.9%,4%,x,12%,-8%,x,2%,-20%
CC(C)(C)c1ccc(/C=C/C(=O)N2CCN(c3ncccn3)CC2)cc1,-5.7%,13%,0%,u,-2%,18%,-11%,-1%
CCCNC(=O)CS(=O)(=O)Cc1nc(-c2cccc(OC)c2)oc1C,-1.4%,-9%,x,-19%,-10%,x,-11%,7%
COc1ccc(-n2c(=O)c3c4c(sc3n(Cc3cc(=O)n5c(C)cccc5n3)c2=O)CCC4)c(OC)c1,-10%,u,u,u,x,4%[46.1 µM],x,x
COc1ccc(-n2nc(C(=O)NCC(=O)N3CCN(c4ccc(F)cc4)CC3)c3ccccc3c2=O)c(OC)c1,x,x,u,12%,-2%,-37%[46.1 µM],-5%,1%
COc1cc(OC)c(OC)cc1/C=C1\Oc2cc(OCC(=O)N3Cc4ccccc4C[C@H]3C(=O)O)ccc2C1=O,x,x,x,-6%,-1%,x,-13%,-2%
CCC(=O)N1c2ccccc2CC1C(=O)NCCc1ccccc1 (stereo not given),0.3%,-1%,23%[46.1 µM],-8%,x,x,x,x
CN(c1ccc(Cl)cc1)S(=O)(=O)c1nnc(NC(=O)C(C)(C)C)s1,x,x,x,-26%,10%,x,4%,-3%
CCCCN(CC)C(=O)c1n[nH]c(=O)c2ccccc12,2.2%,0%,3%,8%,3%,22%,2%,5%
Cc1c(Cc2ccc3c(c2)OCO3)sc(NC(=O)C(C)(C)C)c1C#N,-7.4%,-9%,x,0%,1%,x,-1%,5%
Cc1ccc(NC(=O)c2cccnc2)cc1C,x,x,5%[46.1 µM],16%,-9%,u,-19%,-1%
COc1cc(OC)cc(N(C(=O)C2COc3ccccc3O2)C(C(=O)NC2CCCCC2)c2ccc(O)cc2)c1 (stereo not given),-4.7%,7%,u,0%,8%,u,13%,3%
O=S(=O)(c1cccc(NC(=S)Nc2ccc(Br)cc2Cl)c1)N1CCOCC1,-3.8%,-14%,2%,-2%,5%,4%,4%,1%
O=C(CSc1nc2ccccc2c(=O)n1-c1ccccc1)N1CCc2ccccc21,-0.3%,u,3%,5%,0%,3%,19%,-12%
Cc1c(Cl)cccc1NC(=O)Cn1c(CCC(=O)O)ccc1-c1ccc(Cl)cc1,x,x,25%,-13%,0%,5%,10%,3%
Cn1c(O)c(C=NCCCCCCCCCCC(=O)O)c(=O)n(C)c1=O,x,x,x,0%,-7%,x,1%,1%
N#Cc1ccccc1S(=O)(=O)N1CCN(C(=O)C2CC(=O)N(c3ccc4c(c3)OCCO4)C2)CC1 (stereo not given),x,x,2%,-19%,8%,1%,x,4%
Cc1nc2ccccc2cc1OCc1ccc(F)cc1,-9.7%,-3%,-17%,u,1%,u,-24%,-5%
COc1ccc(SN=C2C(C)=CC(=O)C=C2C)cc1,x,x,u,u,-5%,-15%[46.1 µM],x,4%
O=C(Cc1cccc2ccccc12)Nc1ccc(-c2cc3ccccc3oc2=O)cc1,-7.0%,u,u,-14%,8%,u,17%,6%
CCN(CCC(=O)Nc1ccc(Br)c(C)c1)Cc1ccccc1,-2.8%,3%,-28%,u,-2%,u,-11%,-11%
Nc1n[nH]c(=S)n1-c1ccc(Cl)cc1,x,x,x,9%,-10%,x,10%,15%
O=C(CN1CCN(C(=O)CCC(=O)N2CCC(c3ccccc3)=N2)CC1)Nc1ccc(F)cc1,x,x,22%,-29%,17%,u,x,1%
CCOC(=O)c1ccc(N=Cc2c(O)c3ccccc3oc2=O)cc1,x,x,14%[46.1 µM],-4%,-1%,-14%[46.1 µM],2%,1%
O=C(c1cccnc1)N(Cc1ccccc1)C(=O)c1cccnc1,x,x,0%[46.1 µM],24%,1%,-22%[46.1 µM],x,x
CC1CCN(C2(O)C(=O)Nc3ccc(Cl)cc32)CC1 (stereo not given),x,x,-19%,19%,-12%,6%,3%,-3%
O=C(c1ccc(N2CC3CC(C2)c2cccc(=O)n2C3)c([N+](=O)[O-])c1)N1CCCCC1 (stereo not given),-3.3%,4%,-1%,-18%,5%,4%,3%,3%
O=C(NCC(c1ccco1)N1CCc2ccccc2C1)C(=O)Nc1cc(F)ccc1F (stereo not given),x,x,-7%,-5%,1%,-18%,x,-20%
O=C(COc1ccc(Cl)cc1)NCC(c1ccco1)S(=O)(=O)c1ccccc1 (stereo not given),-4.3%,-2%,u,-23%,x,x,x,x

# Further results.
mol,Cruzain inh Det,Cruzain noTriton,Lassa entry inh,StopGo reporter,RE007 growth inh,MARV entry inh,NS1 inh,SARS PLpro yeast
COc1ccc(C(=O)Nc2nc3ccc(S(C)(=O)=O)cc3s2)cc1,-8.0%,-24%,-3%,-13%,5%,4%,13%,5%
Cc1ccc(-c2cc(C)nc3nc(N)nn23)cc1,-1.6%,1%,0%,42%[activator],-6%,u,-3%,0%
Cc1cc(C)n(-c2ccc(C(=O)Nc3nnc(C4CC4)s3)cc2)n1,2.3%,-5%,1%,x,6%,1%,-1%,-3%
CCOC(=O)c1cc2c(ccn2C)n1CC(=O)N1CCC(Cc2ccccc2)CC1,-7.4%,23%,u,x,10%,u,-48%,-5%
COc1ccc(-n2c(=O)[nH]cc(C(=O)Nc3ccc4c(c3)OCCO4)c2=O)cc1OC,x,x,1%,-10%,-9%,1%,16%,-5%
COc1ccc(C(C(=O)NCC2CCCO2)N(C(=O)CNC(=O)c2cccs2)c2ccc(NC(C)=O)cc2)cc1OC (stereo not given),x,x,-6%,4%,4%,u,-2%,0%
Cc1ccc2nc(SCC(=O)c3ccc4c(c3)NC(=O)CO4)[nH]c2c1,x,x,1%,-13%,-6%,-1%,11%,-2%
CCOc1ccc(S(=O)(=O)Nc2ccccn2)c2ccccc12,-3.1%,u,10%,x,-3%,-16%,1.1µM*,-2%
CCCN(CCC)CCCNS(=O)(=O)c1ccc2c(c1)oc(=O)n2C,0.2%,-20%,0%,-14%,-1%,2%,-3%,0%
COc1cc(Nc2nc(SCc3cccc(Cl)c3)nc3ccccc23)cc(OC)c1,-0.2%,20µM*,2%[46.1 µM],-25%,x,x,x,x
COc1cccc(NC(=O)COc2ccc(C)cc2)c1,-4.8%,-1%,3%,22%,-11%,-24%[46.1 µM],-1%,-47%
O=S(=O)(NCc1cccnc1)c1cccs1,-3.8%,-8%,6%,x,2%,14%,3%,-2%
Cc1c(C#N)c(N=CN(C)C)c(C(=O)c2ccccc2)n1-c1ccccc1,6.3%,-9%,-10%,-11%,19%,0%[46.1 µM],-13%,4%
CCOC(=O)N1CCC(Nc2c(NCCCOC)c(=O)c2=O)CC1,-1.7%,-4%,14%,-22%,12%,16%,-1%,29%
Nc1c(-c2ccccc2)c(CSc2nc3ccccc3[nH]2)nn1-c1cccc(Cl)c1,-1.0%,-3%,u,u,-19%,u,u,-7%

# Source: PubChem
